# Bioassay records: PubChem BioAssay, Broad Institute
# AF4-AF9 inh = inhibitors of AF4 peptide binding to AF9, primary screen, biochemical, AlphaScreen, biotin-AF4 peptide, FLAG-AF9, single point | inhibition, % at 10 µM | 350,000 compounds, 0.47% hits | Protein AF-9 (Homo sapiens), P42568 | AID 651704, 2012;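 active = every replicate reaching a set inhibition limit, whatever the replicate mean, cut at about 25% in these data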;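 also: 0% = plate neutral control median and 100% = total signal loss; the record names both 10 and 1 µM as test concentration; the first replicate is given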
# Target sequence (P42568 whole entry, looked up): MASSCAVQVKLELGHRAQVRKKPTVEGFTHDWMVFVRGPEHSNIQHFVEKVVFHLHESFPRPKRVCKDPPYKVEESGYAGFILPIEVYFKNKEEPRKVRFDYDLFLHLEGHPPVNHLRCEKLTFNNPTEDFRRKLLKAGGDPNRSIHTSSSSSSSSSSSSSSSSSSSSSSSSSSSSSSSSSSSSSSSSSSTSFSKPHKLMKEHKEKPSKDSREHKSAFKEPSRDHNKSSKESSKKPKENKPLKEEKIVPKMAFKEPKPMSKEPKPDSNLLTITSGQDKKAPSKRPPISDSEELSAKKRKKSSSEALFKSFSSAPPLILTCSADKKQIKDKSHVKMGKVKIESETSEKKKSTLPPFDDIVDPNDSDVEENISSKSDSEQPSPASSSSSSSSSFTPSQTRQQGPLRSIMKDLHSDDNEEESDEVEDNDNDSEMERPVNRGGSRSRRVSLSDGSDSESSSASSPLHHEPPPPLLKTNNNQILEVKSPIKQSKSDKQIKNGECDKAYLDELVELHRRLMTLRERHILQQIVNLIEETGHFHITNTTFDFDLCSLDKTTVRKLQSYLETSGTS
# An asterisk follows results filed as active; & = joins results of further samples.
entry	canonical_smiles	AF4-AF9 inh
1	COc1cccc(CN2CCC2(C)C(=O)Nc2ccc(Cl)c(Cl)c2)c1F (centres undefined)	-7.7
2	C[C@@H]1CN([C@@H](C)CO)C(=O)c2cc(NS(=O)(=O)c3cn(C)cn3)ccc2O[C@@H](C)CCCCO[C@H]1CN(C)C(=O)Nc1ccc(F)cc1	2.1
3	CC(C)c1cn(CC[C@@H]2CC[C@H](NC(=O)C3CCOCC3)[C@@H](CO)O2)nn1	0.6
4	CO[C@H]1CN(C)C(=O)c2ccc(NC(=O)C3CCCCC3)cc2OC[C@H](C)N(Cc2cccnc2)C[C@@H]1C	-0.1
5	CC(C)C(N)c1csc(Nc2ccc(S(C)(=O)=O)cc2)n1 (centres undefined)	-6.8
6	CCCNC(=O)Nc1ccc2c(c1)OC[C@H](C)N(Cc1ccncc1)C[C@H](C)[C@H](OC)CN(C)C2=O	0.2
7	CNC[C@@H]1Oc2ccc(NS(=O)(=O)c3ccc(C)cc3)cc2C(=O)N([C@@H](C)CO)C[C@H]1C	5.2
8	CN(C)Cc1cn(CC[C@H]2CC[C@@H](NC(=O)Cc3cccnc3)[C@H](CO)O2)nn1	-1.8
9	C[C@@H]1CN([C@H](C)CO)C(=O)Cc2cc(NC(=O)Cn3cnnn3)ccc2O[C@H]1CN(C)Cc1ccncc1	-4.0
10	Cc1noc(C)c1NC(=O)N(C)C[C@@H]1Oc2ccc(NC(=O)CCCCCC(=O)Nc3ccccc3N)cc2CC(=O)N([C@@H](C)CO)C[C@@H]1C	-3.3
11	CNC(=O)C[C@H]1CC[C@H]2[C@@H](COC[C@@H](O)CN2C(=O)Nc2ccc(Cl)c(Cl)c2)O1	-0.2
12	COc1ccc(CN(C)C[C@@H]2Oc3ccc(NS(=O)(=O)c4c(C)noc4C)cc3CC(=O)N([C@H](C)CO)C[C@@H]2C)cc1	0.8
13	C[C@@H]1CN([C@H](C)CO)C(=O)c2cc(NS(=O)(=O)c3ccc(F)cc3)ccc2O[C@H]1CN(C)Cc1ccc(C(=O)Nc2ccccc2N)cc1	-2.7
14	O=C(C[C@@H]1C[C@H]2c3cc(NC(=O)NC4CCCC4)ccc3O[C@H]2[C@@H](CO)O1)NCCN1CCCCC1	2.3
15	C[C@H](CO)N1C[C@H](C)[C@H](CN(C)C(=O)Nc2ccc(C(F)(F)F)cc2)Oc2c(NC(=O)CCCCCC(=O)Nc3ccccc3N)cccc2C1=O	-1.7
16	C[C@H](CO)N1C[C@H](C)[C@@H](CN(C)Cc2ccccc2)Oc2ccc(NC(=O)Nc3cccc4ccccc34)cc2CC1=O	8.6
17	Cc1ccc(S(=O)(=O)Nc2ccc3c(c2)C(=O)N([C@H](C)CO)C[C@@H](C)[C@@H](CN(C)Cc2ccccc2)O3)cc1	3.1
18	C[C@H](CO)N1C[C@H](C)[C@@H](CN(C)C(=O)Nc2cccc(Cl)c2Cl)OCc2ccccc2-c2ccccc2C1=O	-3.2
19	O=C(NC[C@H]1CC[C@@H]2[C@@H](CN2C(=O)Cc2ccncc2)O1)C1CCOCC1	-0.2
20	COCC(=O)N1[C@@H](C#N)[C@@H](c2ccc(C#CCC3CCCC3)cc2)[C@@H]1CO	6.3
21	C=C(C)Cn1c2ccc(NC(=O)NCCc3ccccc3)cc2c(=O)n1C	-7.0
22	Cc1ccc(S(=O)(=O)Nc2cccc3c2O[C@@H](CN(C)S(C)(=O)=O)[C@@H](C)CN([C@H](C)CO)C3=O)cc1	-4.1
23	CC(C)CC#Cc1cnc2c(c1)C(=O)N([C@H](C)CO)C[C@H](C)[C@H](CN(C)C(=O)Nc1cc(F)ccc1F)O2	-2.9
24	CCOC(=O)C(=Cc1ccc(N(C)C)cc1)C(=O)c1ccccc1	10.1
25	C[C@H](CO)N1C[C@H](C)[C@@H](CN(C)C(=O)Nc2ccc(F)cc2)Oc2ccc(NS(=O)(=O)c3cn(C)cn3)cc2CC1=O	-2.4
26	O=C(N[C@@H]1CC[C@H](CCNC(=O)C2CCOCC2)O[C@H]1CO)c1ccncc1	0.0
27	COc1cccc(S(=O)(=O)Nc2ccc3c(c2)[C@H]2C[C@H](CC(=O)N4CCCCC4)O[C@@H](CO)[C@H]2O3)c1	0.5
28	CO[C@H]1CN(C)C(=O)c2ccc(NC(=O)Nc3cc(F)ccc3F)cc2OC[C@@H](C)N(C(=O)c2cnccn2)C[C@@H]1C	3.0
29	COc1ccc(S(=O)(=O)N2CCCCC2c2cc(C(=O)Nc3ccc(F)c(Cl)c3)no2)cc1 (centres undefined)	-0.9
30	COc1ccc(-c2cccc(-c3nc(C(=O)NCC(F)(F)F)cc4c3[C@@H](CCO)N([S@](=O)C(C)(C)C)C4)c2)cc1	-3.9

# From no. 22 up to 23, as listed above:
entry	canonical_smiles	AF4-AF9 inh
22	Cc1ccc(S(=O)(=O)Nc2cccc3c2O[C@@H](CN(C)S(C)(=O)=O)[C@@H](C)CN([C@H](C)CO)C3=O)cc1	-4.1
23	CC(C)CC#Cc1cnc2c(c1)C(=O)N([C@H](C)CO)C[C@H](C)[C@H](CN(C)C(=O)Nc1cc(F)ccc1F)O2	-2.9

# (next part)
entry	canonical_smiles	AF4-AF9 inh
31	CCCCCCCCN1C(=O)[C@H](CC(=O)NCCCC)C[C@@]2(C(=O)OC)CC(C)(C)CC=C12	-1.9
32	C[C@@H]1CN([C@H](C)CO)C(=O)c2cc(C#CCN(C)C)cnc2O[C@H]1CN(C)C(=O)Nc1cccc(F)c1	0.2
33	CC(C)NC(=O)N[C@@H]1CC[C@H](CCNS(=O)(=O)c2ccc(F)cc2)O[C@H]1CO	-0.7
34	C[C@H]1CCCCO[C@H](CN(C)C(=O)Cc2ccccc2)[C@@H](C)CN([C@@H](C)CO)C(=O)c2cc(NC(=O)Cc3ccccc3)ccc2O1	6.4
35	CCCNC(=O)N1[C@H](CO)[C@@H]2c3ccccc3N(C(=O)C3CC3)C[C@@H]21	0.8
36	CCC(=O)N[C@@H]1C=C[C@H](CC(=O)NCc2ccccc2F)O[C@H]1CO	0.8
37	O=C(c1ccccn1)N1C[C@@H]2[C@H](c3ccccc31)[C@H](CO)N2CC1CCCC1	0.0
38	CN1CCN(C(=O)C[C@H]2C[C@@H]3c4cc(NC(=O)C5CCC5)ccc4O[C@@H]3[C@H](CO)O2)CC1	-4.7
39	Cc1ccc(S(=O)(=O)N2C3CCCCC3O[C@H]2CC(=O)Oc2ccccc2)cc1 (some centres undefined)	-0.4
40	C[C@@H]1CN([C@@H](C)CO)C(=O)c2cccc(NC(=O)c3ccncc3)c2O[C@@H]1CN(C)C(=O)Nc1ccc(C(F)(F)F)cc1	-0.1
41	CCC(=O)Nc1ccc2c(c1)OC[C@@H](C)N(CC1CCOCC1)C[C@@H](C)[C@H](OC)CN(C)C2=O	1.0
42	CCC(=O)N1C[C@@H](C)[C@@H](OC)CN(C)C(=O)c2cc(NC(=O)NC(C)C)ccc2OC[C@H]1C	1.4
43	C[C@@H]1CN([C@@H](C)CO)C(=O)Cc2cc(NS(=O)(=O)c3ccccc3)ccc2O[C@H]1CN(C)Cc1ccccc1	4.4
44	COCCN1C(=O)CCC1(C)C(=O)NC(C)(C)C (centres undefined)	-1.5
45	CO[C@H]1CN(C)C(=O)c2cc(NC(=O)c3cccc(F)c3)ccc2OC[C@@H](C)NC[C@H]1C	-9.3
46	CCC(=O)Nc1ccc2c(c1)OC[C@@H](C)N(C(C)=O)C[C@H](C)[C@H](OC)CN(C)C2=O	-2.6
47	CC(C)CC1C(=O)N(Cc2cn(Cc3ccco3)nn2)CCS(=O)(=O)N1Cc1ccc(-c2ccc(Cl)cc2)cc1 (centres undefined)	-2.7
48	CN(C)CC(=O)N[C@H]1C[C@@H]2O[C@H](CO)CC[C@@H]2O[C@@H]1CCc1ccc(C#Cc2ccccc2)cc1	5.4
49	COc1ccc(CNC(=O)CN2CCC(NC(=O)c3cccc(OC)c3)CC2)cc1	2.7
50	CN1C(=O)c2cc(NC(=O)c3ccc(F)cc3)ccc2OC[C@@H]2O[C@H](CC(=O)NCC3CCCCC3)CC[C@H]21	-3.3
51	C[C@@H]1CN([C@@H](C)CO)C(=O)Cc2cc(NC(=O)Cc3ccccc3)ccc2O[C@@H]1CN(C)S(C)(=O)=O	-0.1
52	O=C(c1ccc2c(c1)OCO2)N1CC(=O)N2[C@H](C1)[C@@H](c1ccc(C#Cc3ccccc3)cc1)[C@@H]2CO	-2.2
53	COCCNC(=O)C1(C)CCCN(Cc2cc3ccccc3o2)C1 (centres undefined)	-0.3
54	Cc1noc(C)c1S(=O)(=O)N(C)C[C@H]1Oc2c(NC(=O)C3CCCCC3)cccc2C(=O)N([C@@H](C)CO)C[C@H]1C	-2.7
55	O=C(/C=C/c1ccccc1)Nc1cccc(C(=O)N2CCCCC2)c1	0.9
56	O=C(c1ccccn1)N1C[C@@H]2[C@H](c3ccccc31)[C@H](CO)N2C(=O)Nc1ccccc1	2.4
57	C[C@@H]1CN([C@@H](C)CO)C(=O)Cc2cc(NC(=O)CCCCCC(=O)Nc3ccccc3N)ccc2O[C@@H]1CN(C)C(=O)Nc1ccc2c(c1)OCO2	3.3
58	COc1ccc(-c2ccc3n(c2=O)C[C@H]2[C@H](CO)[C@@H](C(=O)N4CCOCC4)N[C@@H]32)cc1	-0.9
59	Cn1ccc2c(N3CCCC3)cc3c(c21)C1CCC3C1 (centres undefined)	30.5*
60	C[C@@H]1CN([C@H](C)CO)S(=O)(=O)c2ccc(-c3ccccc3)cc2O[C@@H]1CN(C)C(=O)CC1CC1	0.0

# Seven entries picked at random from the list so far:
entry	canonical_smiles	AF4-AF9 inh
58	COc1ccc(-c2ccc3n(c2=O)C[C@H]2[C@H](CO)[C@@H](C(=O)N4CCOCC4)N[C@@H]32)cc1	-0.9
53	COCCNC(=O)C1(C)CCCN(Cc2cc3ccccc3o2)C1 (centres undefined)	-0.3
48	CN(C)CC(=O)N[C@H]1C[C@@H]2O[C@H](CO)CC[C@@H]2O[C@@H]1CCc1ccc(C#Cc2ccccc2)cc1	5.4
49	COc1ccc(CNC(=O)CN2CCC(NC(=O)c3cccc(OC)c3)CC2)cc1	2.7
51	C[C@@H]1CN([C@@H](C)CO)C(=O)Cc2cc(NC(=O)Cc3ccccc3)ccc2O[C@@H]1CN(C)S(C)(=O)=O	-0.1
59	Cn1ccc2c(N3CCCC3)cc3c(c21)C1CCC3C1 (centres undefined)	30.5*
50	CN1C(=O)c2cc(NC(=O)c3ccc(F)cc3)ccc2OC[C@@H]2O[C@H](CC(=O)NCC3CCCCC3)CC[C@H]21	-3.3

# The list continues.
entry	canonical_smiles	AF4-AF9 inh
61	CCC(=O)N1[C@@H]2CN(C(=O)CC(F)(F)F)c3ccccc3[C@@H]2[C@@H]1CO	1.4
62	Cc1ccc(-c2ccc3c(c2)O[C@H](CN(C)Cc2ccc(F)cc2)[C@H](C)CN([C@@H](C)CO)S3(=O)=O)cc1	1.5
63	Cc1cccc(-c2ccc([C@H]3[C@@H](CO)N4CCCCN(S(=O)(=O)c5cccc(C)c5)C[C@H]34)cc2)c1	0.8
64	C[C@H]1COc2cccc(N3CCCC3)c2S(=O)(=O)N1	-1.2
65	C[C@@H]1CN([C@H](C)CO)S(=O)(=O)c2ccc(-c3ccc(F)cc3)cc2O[C@@H]1CN(C)C(=O)C1CCOCC1	-0.3
66	CN(C)C(=O)c1ccc(-c2ccc(C3[C@@H]4CN(S(=O)(=O)c5ccc(F)cc5)C[C@H]3N4)cc2)cc1 (some centres undefined)	-3.7&-2.2
67	O=c1[nH][nH]c2c1[C@H](c1ccc(Cl)cc1)O[C@H](C1CCCCC1)C2	3.6
68	FC(F)(F)c1ccccc1CN1CCCc2nc(-c3ccc(Br)cc3)ccc21	-0.5
69	CN(C)C(=O)c1ccc(-c2ccc3c(c2)[C@@H]2[C@@H](CCN2C(=O)C2CCC2)[C@@H](CO)N3C)cc1	-2.9
70	C[C@@H]1CN([C@H](C)CO)C(=O)Cc2cc(NC(=O)C3CC3)ccc2O[C@H]1CN(C)C	-0.5
71	C[C@H](CO)N1C[C@H](C)[C@@H](CN(C)C(=O)c2ccccc2)OCCCC[C@H](C)Oc2ccc(NC(=O)CCC(F)(F)F)cc2C1=O	-1.7
72	CCS(=O)(=O)N1CC2(C1)[C@@H](c1ccccc1)[C@@H](CO)N2CC1CCCC1	-0.6
73	C[C@H](CO)N1C[C@H](C)[C@@H](CN(C)S(=O)(=O)c2cn(C)cn2)Oc2ncc(C3=CCCCC3)cc2C1=O	-1.9
74	CO[C@H]1CN(C)C(=O)c2ccc(NC(=O)c3cccc(F)c3)cc2OC[C@H](C)N(C(C)=O)C[C@@H]1C	-0.6
75	C[C@@H]1CN([C@@H](C)CO)C(=O)c2cc(NC(=O)c3ccccc3)ccc2O[C@@H](C)CCCCO[C@H]1CN(C)C(=O)C1CCCCC1	-5.3
76	CCCC(=O)N1CC2(CCN(CC3CCCC3)CC2)c2c([nH]c3cc(OC)ccc23)[C@@H]1CO	6.8
77	C[C@H](CO)N1C[C@H](C)[C@@H](CN(C)Cc2ccc(C(F)(F)F)cc2)Oc2ccc(NS(=O)(=O)c3cccs3)cc2CC1=O	2.2
78	CO[C@H]1CN(C)C(=O)c2cc(NS(C)(=O)=O)ccc2OC[C@H](C)N(Cc2nccs2)C[C@@H]1C	-1.9
79	CC(C)NC(=O)N1[C@@H](CO)[C@@H]2c3ccccc3N(C(=O)Nc3ccc(Cl)cc3)C[C@@H]21	-0.5
80	C[C@H](CO)N1C[C@H](C)[C@H](CN(C)Cc2ccc(C(=O)O)cc2)OCCCC[C@H](C)Oc2ccc(NC(=O)c3ccccc3)cc2C1=O	-3.1
81	COc1ccc(C(C(=O)NCc2ccccc2)n2c(=O)c(-c3cc4ccccc4[nH]3)nc3ccccc32)cc1 (centres undefined)	-25.7
82	CCc1csc(N2[C@H](C#N)[C@@H](c3ccc(-c4cccc(F)c4)cc3)[C@@H]2CO)n1	0.6
83	Cc1noc(C)c1S(=O)(=O)Nc1ccc2c(c1)C(=O)N([C@@H](C)CO)C[C@H](C)[C@@H](CN(C)C(=O)Nc1ccc3c(c1)OCO3)OCCCC[C@@H](C)O2	6.3
84	C=CCN1CC(COCCCC)Oc2ccc(Cl)cc2S1(=O)=O (centres undefined)	-5.5
85	O=C(Nc1ccc2c(c1)[C@H]1C[C@@H](CC(=O)N3CCc4ccccc4C3)O[C@@H](CO)[C@H]1O2)C1CCOCC1	-3.3

# This is a subset; the hit share may differ from the screen's.
